LANA-H2B inh: blocks KSHV LANA binding to histone H2A/H2B | AID 2629 | Q9QR71 | inhibition, % (no concentration beside the values) | 0.6% of 320,000 active | cell-free LANA-H2A/H2B peptide, fluorescence polarization; in the data active means inhibition mostly above about 10%, no sharp cut-off; inactive means mostly below about 6.7%;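 further: stock transfer was 7.5 nL into about 10 µL; 0% = median of vehicle wells and 100% = median of positive control wells; one replicate is shown; the record names a cut of 25% in any replicate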
RanGTP-Imp inh: disruptors of Ran-importin-beta complex formation – biochemical, FRET, CFP-Ran, YFP-importin-beta, homogeneous, primary screen; AID 2216; inhibition, % (concentration not given with the values); 1.1% of 300,000 active; cell-free CFP-Ran/YFP-importin-beta FRET ratio;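 active means most replicates above 15%; inconclusive means exactly half above 15%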;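 further: 0% = DMSO wells and 100% = Ran loaded with GDP instead of GTP; wells of about 40 µL received 100 nL stock; the first replicate is given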
Calb FLC: C. albicans growth modulation with fluconazole | C. albicans CaCi-2 (fluconazole-resistant clinical isolate) + fluconazole, Alamar Blue growth, 48 h | growth inhibition, % (concentration not given with the values) | 0.57% of 300,000 active;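 active means most replicates above 75%; inconclusive means exactly half above 75%; inactive means most below 75%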;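 further: all wells also contain fluconazole at 8 µg/ml as a sub-toxic cotreatment; 0% = median of DMSO wells and 100% = median of geldanamycin control wells; wells of about 8 µL received 7.5 nL stock; the first replicate is given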
B2AR ag: agonists of human beta-2 adrenergic receptor inducing internalization; P07550; Am2.2-beta2AR cells, FAP receptor internalization, flow cytometry; reference of the scale not given here; response, % (concentration not given with the values); 0.43% of 340,000 active;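 active means response above a set limit, near 3 SD of response in nonfluorescent compounds, cut at about 42% in these data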;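 further: stock transfer was 100 nL into about 11 µL; a reference agonist was the positive control; negative values mostly stem from fluorescent compounds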
Target sequence (P07550 whole entry, looked up): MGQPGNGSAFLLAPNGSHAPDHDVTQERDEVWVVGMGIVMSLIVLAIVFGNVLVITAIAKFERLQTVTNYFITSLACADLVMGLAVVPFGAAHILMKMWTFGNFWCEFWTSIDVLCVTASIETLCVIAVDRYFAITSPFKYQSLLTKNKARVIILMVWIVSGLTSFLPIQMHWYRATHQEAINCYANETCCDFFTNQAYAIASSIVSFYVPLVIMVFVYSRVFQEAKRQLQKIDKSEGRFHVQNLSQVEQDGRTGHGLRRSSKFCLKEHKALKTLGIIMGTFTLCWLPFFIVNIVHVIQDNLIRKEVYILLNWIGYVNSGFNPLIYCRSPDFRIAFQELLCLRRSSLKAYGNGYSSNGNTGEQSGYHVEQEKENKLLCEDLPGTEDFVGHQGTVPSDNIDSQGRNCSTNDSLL
HNF4A DNA FP: change in binding of human HNF4 alpha to DNA; P41235; HNF4a-FITC DNA binding, fluorescence polarization, 1 h; activity change, % at 10 µM; 0.3% of 360,000 active; AID 1224865; in the data active means activity change above about 30%, passing the limit was not always enough;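 further: controls were the assay level and a saturating level of protein; the project sought stronger binding though the title names inhibitors; some compounds called inactive have numbers as strong as hits; positive values seem to mean higher polarization but the record does not say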
Target sequence (P41235 whole entry, looked up): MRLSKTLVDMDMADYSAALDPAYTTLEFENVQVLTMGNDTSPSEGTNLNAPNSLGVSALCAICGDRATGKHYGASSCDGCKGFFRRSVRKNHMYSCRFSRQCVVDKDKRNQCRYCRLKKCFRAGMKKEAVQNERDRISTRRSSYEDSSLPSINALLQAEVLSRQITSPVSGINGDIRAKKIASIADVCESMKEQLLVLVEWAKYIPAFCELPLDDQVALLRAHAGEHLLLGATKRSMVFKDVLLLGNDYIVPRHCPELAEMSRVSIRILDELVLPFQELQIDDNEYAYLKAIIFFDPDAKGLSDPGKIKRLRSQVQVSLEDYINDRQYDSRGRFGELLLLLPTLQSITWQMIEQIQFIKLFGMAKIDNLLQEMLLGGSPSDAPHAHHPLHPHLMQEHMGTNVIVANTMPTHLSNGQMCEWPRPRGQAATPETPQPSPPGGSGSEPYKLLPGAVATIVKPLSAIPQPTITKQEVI
ALR H2O2 inh: blocks human ALR sulfhydryl oxidase activity. P55789. purified ALR, DTT oxidation, H2O2 HRP-luminol luminescence. inhibition, % (test concentration not listed). 3.8% of 290,000 active. AID 485317;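 active means mean and each replicate at 75% or more; inconclusive means only one of the two met; inactive means neither met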;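 further: stock transfer was 7.5 nL into about 7.5 µL; 0% = neutral wells and 100% = wells with inactivated enzyme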
Vif A3G: HIV-1 Vif–A3G interaction blockers – biochemical, TR-FRET, GST-Vif 1-94, biotin-A3G peptide, dose response retest, primary screen (AID 1117319) | TR-FRET GST-Vif / biotin-A3G peptide binding; higher % means a stronger effect; test concentration not given here; strong numbers were not always called active | 0.57% of 260,000 active | inhibition, %, or IC50 in µM where a hit was titrated;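 active means above the screen mean plus three standard deviations and confirmed in dose response; inconclusive means results disagree or hit not tested in dose response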;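 further: Vif residues 1-94 fused to GST binding biotinylated APOBEC3G peptide 110-148; 0% = full assay without inhibitor and 100% = GST in place of GST-Vif; retest series ran down from 100 µM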
* marks the source's active call; other numbers are inactive results; ? = inconclusive; · = no result given.

cpd	Structure	ALR H2O2 inh	Vif A3G	RanGTP-Imp inh	LANA-H2B inh
1	Cc1nn(-c2ccccc2)nc1C(=O)OCC(=O)N1CCC(C)CC1	-8	-5%	·	0.2
2	COc1ccc(-c2oc3ncn4nc(COc5ccccc5)nc4c3c2-c2ccc(OC)cc2)cc1	-4	-3%	3.8	-5.9
3	COc1ccc(/C=C(\C#N)C(=O)Nc2cccc(C)n2)cc1	1	·	2.0	-1.6
4	CCCCN1C2=C(C(=O)CCC2)C(c2ccc(Cl)c(Cl)c2)C2=C1c1ccccc1C2=O (configuration not stated)	-6	?	7.8	6.4
5	O=C(NCc1ccccn1)C(C(=O)c1ccc(F)cc1)n1ccccc1=O (configuration not stated)	2	4%	?	1.9
6	Fc1ccc(N2CCN(Cc3nnc(-c4ccccc4)o3)CC2)cc1	32	·	-3.8	1.5
7	O=C(Nc1ccc(Br)cc1)c1cccnc1N1CCCCC1	-1	7%	-1.4	-0.1
8	COc1nc(NC(C)C)nc(N(C#N)CN2C(=O)c3ccccc3S2(=O)=O)n1	21	?	2.5	-2.3

cpd	B2AR ag	HNF4A DNA FP	Calb FLC
1	-6	-3.0	·
2	10	-1.7	-24
3	0	1.4	-6
4	-2	-8.4	6
5	2	6.5	-3
6	-6	2.0	-21
7	-24	1.2	-4
8	9	0.9	0

(list continues)
cpd	Structure	ALR H2O2 inh	Vif A3G	RanGTP-Imp inh	LANA-H2B inh
9	Brc1ccccc1C1=Nn2c(nnc2-c2ccccc2)SC1	-1	5%	1.1	2.8
10	O=c1ccnc(Nc2ccc3c(c2)OCCO3)[nH]1	-16	3%	-5.4	0.5
11	Nn1c(SCC(=O)NC(=O)NCc2ccccc2)nnc1C1CC1	-6	6%	-6.2	-0.1
12	CCOc1ccc(C(=O)NCC(=O)N2CCCCCCC2)cc1OCC	-6	-3%	·	2.4
13	O=C1c2ccccc2C(=O)N1CCCON1C(=O)c2ccccc2C1=O	·	-6%	-2.4	1.3
14	Cc1nn(C)c(C)c1CNC(=O)Nc1cccc(Cl)c1C	-1	8%	0.1	3.0
15	O=C1CS/C(=N/N=C/c2ccco2)N1Cc1ccc(F)cc1	90*	11%	2.5	2.7
16	O=C1CN(C(=O)COC(=O)[C@@H]2CC(O)CN2S(=O)(=O)c2ccc(Cl)cc2)c2ccccc2N1 (some centres not stated)	-3	0%	·	-0.1

cpd	B2AR ag	HNF4A DNA FP	Calb FLC
9	1	1.7	-2
10	5	2.8	-9
11	-2	0.9	-4
12	1	1.2	3
13	-9	-1.3	-6
14	-1	-0.1	-2
15	4	10.0	-29
16	-4	1.4	·

Carrying on.
cpd	Structure	ALR H2O2 inh	Vif A3G	RanGTP-Imp inh	LANA-H2B inh
17	O=C(COc1ccc(F)c(Cl)c1)N1CCCCCCC1	-6	·	6.3	-0.8
18	COc1cc(C(=O)N=c2sc3ccccc3n2C)cc(OC)c1OC	-2	·	3.5	-2.9
19	CCS(=O)(=O)c1ccc(O)c(NC(=O)COc2ccccc2)c1	1	20%	0.6	-4.5
20	Cc1oc(S(=O)(=O)N2CCCCC2)cc1NC(=O)Nc1ccc(F)cc1	1	·	-1.7	-1.7
21	O=C(N/C(=C\c1ccc(Br)cc1)C(=O)N1CCOCC1)c1ccc(Br)o1	·	-4%	0.5	11
22	CSc1nc2sc3c(c2c(=O)[nH]1)CCC3	·	5%	-0.5	-0.3
23	COc1cc(OC)cc(C(=O)NNC(=O)c2cc3ccccc3cc2O)c1	-21	-9%	-5.8	-5.3
24	CCCCN(CC)C(=O)Cn1ncc2c3ccccc3n(CCC)c2c1=O	-1	-9%	0.5	1.0

cpd	B2AR ag	HNF4A DNA FP	Calb FLC
17	-62	-1.3	1
18	-5	-2.9	18
19	1	1.9	10
20	-3	4.3	-18
21	-9	1.8	-8
22	-2	2.4	-6
23	0	4.5	81*
24	-12	-4.4	2

(cont.)
cpd	Structure	ALR H2O2 inh	Vif A3G	RanGTP-Imp inh	LANA-H2B inh
25	Cc1ccc(OCCC(=O)OCC(=O)N2CCN(S(=O)(=O)c3ccc(Cl)cc3)CC2)cc1	4	-3%	0.9	1.2
26	COc1cc(CN(C)Cc2cccc3ccccc23)cc([N+](=O)[O-])c1O	10	·	0.5	-1.6
27	O=C(NNC1CC(=O)N(c2ccc(Cl)cc2)C1=O)c1ccco1 (configuration not stated)	8	6%	-3.3	-2.2
28	COc1cc(S(=O)(=O)NC2CCCC2)c(OC)cc1C	-4	-6%	4.5	1.1
29	Cc1[nH]nc(SCC(=O)Nc2cccc(O)c2)c1[N+](=O)[O-]	17	1%	-0.6	-2.1
30	COc1ccc(CC(=O)N2CCN(c3ccccn3)CC2)cc1OC	-11	?	·	-3.3
31	COc1cc(S(=O)(=O)NC2CCCCC2)ccc1F	6	-4%	-3.1	5.4
32	CC(=O)Nc1ccccc1OCC(=O)NC(C)c1ccc(F)cc1 (configuration not stated)	-1	·	?	0.5

cpd	B2AR ag	HNF4A DNA FP	Calb FLC
25	-2	-1.2	0
26	26	-0.2	-5
27	2	-4.7	6
28	0	3.7	20
29	0	1.4	-16
30	-10	3.6	·
31	-2	-1.9	-19
32	-10	1.6	-6

The final 2 compounds of the part above lead into the next:
cpd	Structure	ALR H2O2 inh	Vif A3G	RanGTP-Imp inh	LANA-H2B inh
31	COc1cc(S(=O)(=O)NC2CCCCC2)ccc1F	6	-4%	-3.1	5.4
32	CC(=O)Nc1ccccc1OCC(=O)NC(C)c1ccc(F)cc1 (configuration not stated)	-1	·	?	0.5
33	COCCCN1C(=O)c2ccc(C(=O)NCc3ccccn3)cc2C1=O	-3	·	-0.6	2.3
34	CCOCCn1c(SCc2ccccc2)nc2c1c(=O)[nH]c(=O)n2C	0	·	6.7	-5.6
35	COC(=O)Cn1cc(/C=C/[N+](=O)[O-])c2ccccc21	-10	?	-4.8	-1.3
36	CCN1/C(=c2/s/c(=C3/C(=O)N(c4ccccc4)N=C3C)n(CC)c2=O)C=Cc2ccccc21	15	·	0.8	-1.2
37	Cc1cnc(NC(=O)c2ccc(-c3ccc([N+](=O)[O-])cc3)o2)s1	-1	2%	·	8.0
38	Cc1nnc(SCC(=O)N2N=C(c3ccc(Cl)cc3)CC2c2ccco2)[nH]c1=O (configuration not stated)	63	?	-1.3	-1.8
39	O=C(NCCc1ccccc1Cl)C1CCC(=O)N(CCCc2ccccc2)C1 (configuration not stated)	-2	·	4.1	-2.7
40	CCCN(CC(=O)Nc1cc(C)on1)CC(=O)Nc1ccccc1C	0	0%	·	·

cpd	B2AR ag	HNF4A DNA FP	Calb FLC
31	-2	-1.9	-19
32	-10	1.6	-6
33	3	1.9	-8
34	-4	2.4	-8
35	20	25	-21
36	-2	9.2	-13
37	8	-4.2	·
38	9	17	-11
39	-5	3.6	-6
40	-4	3.6	·

Next part:
cpd	Structure	ALR H2O2 inh	Vif A3G	RanGTP-Imp inh	LANA-H2B inh
41	COCc1cc(Sc2ccc(Cl)cc2)nc(-c2ccccc2)n1	-8	10%	-5.5	-1.0
42	COc1cc(C(=O)OCC(=O)NCc2ccc(F)cc2)cc(NC(=O)c2cccs2)c1OC	3	-21%	-4.5	-0.2
43	CC(=O)c1c(C)oc2c1cc(NS(=O)(=O)c1ccc(C(=O)O)cc1)c1ccccc12	-26	·	4.2	-5.8
44	Cc1cc(Cl)ccc1C(=O)C1CCCN(C(=O)c2cnn(C(C)C)c2)C1 (configuration not stated)	-2	·	1.2	0.1
45	CC(=O)C(Sc1ccc2nnc(-c3ccc(C)cc3)n2n1)C(C)=O	3	3%	-0.7	2.9
46	COCCCNC(=O)/C(C#N)=C/c1cc(C)[nH]c1C	7	10%	-3.8	-3.5
47	O=C(Cn1c(=O)c2cccn2c2ccccc21)Nc1cc(F)ccc1F	-14	3%	2.9	0.2
48	Cc1cc(C(=O)N2CCCC(N3CCN(c4ccccc4C)CC3)C2)n(C)n1 (configuration not stated)	0	·	-5.3	4.3

cpd	B2AR ag	HNF4A DNA FP	Calb FLC
41	-4	5.0	-14
42	-8	2.9	-1
43	10	5.1	21
44	4	1.5	-14
45	-7	-1.8	-6
46	-1	1.4	-1
47	1	15	?
48	-5	-5.2	-9

Random excerpt: two compounds from above.
cpd	Structure	ALR H2O2 inh	Vif A3G	RanGTP-Imp inh	LANA-H2B inh
45	CC(=O)C(Sc1ccc2nnc(-c3ccc(C)cc3)n2n1)C(C)=O	3	3%	-0.7	2.9
43	CC(=O)c1c(C)oc2c1cc(NS(=O)(=O)c1ccc(C(=O)O)cc1)c1ccccc12	-26	·	4.2	-5.8

cpd	B2AR ag	HNF4A DNA FP	Calb FLC
45	-7	-1.8	-6
43	10	5.1	21

Other structures follow.
cpd	Structure	ALR H2O2 inh	Vif A3G	RanGTP-Imp inh	LANA-H2B inh
49	O=C(NCCCn1ccnc1)c1nc(Cn2cc([N+](=O)[O-])cn2)no1	8	-12%	?	0.8
50	CC(C)CNS(=O)(=O)c1cc2c3c(c1)CC(=O)N3CCC2	·	-7%	1.7	2.2
51	Nn1c(SCc2ccc(F)cc2)nnc1-c1ccccn1	-8	?	0.1	0.6
52	CC(=O)N1CCOc2ccc(S(=O)(=O)NCc3ccc(Cl)cc3)cc21	-10	9%	1.0	1.2
53	Fc1ccc(-c2nnc(-c3ccc(Cl)cc3Cl)o2)cc1	·	28%	?	-2.6
54	Cc1nnc(-c2ccc(N3CCCCCC3)c([N+](=O)[O-])c2)o1	3	?	-7.3	1.4
55	CCC(C)c1ccc(S(=O)(=O)N2CCN(c3ccccn3)CC2)cc1 (configuration not stated)	-9	·	1.7	-2.4
56	O=C(CSc1nnc(-c2ccc(C(F)(F)F)cn2)o1)Nc1ccccc1Cl	0	-1%	2.1	11

cpd	B2AR ag	HNF4A DNA FP	Calb FLC
49	5	-2.1	-16
50	7	1.8	-11
51	-5	-0.5	10
52	6	1.8	-15
53	-15	0.8	-5
54	-17	-2.6	3
55	-1	4.5	-14
56	-5	1.1	4

The listing continues:
cpd	Structure	ALR H2O2 inh	Vif A3G	RanGTP-Imp inh	LANA-H2B inh
57	N#CCCn1c(SCC(=O)c2c[nH]c3ccccc23)nc2ccccc21	-5	6%	1.5	-5.8
58	CC(=O)NCC(=O)OC(C(=O)c1ccccc1)c1ccc(Cl)cc1 (configuration not stated)	6	10%	3.3	-7.7
59	CS(=O)(=O)c1ccc(Cl)c(NC(=O)CCCSc2ccccc2)c1	4	7%	-1.6	1.1
60	Cn1c(=O)oc2cc(S(=O)(=O)Nc3ccccc3F)ccc21	·	-2%	6.3	-2.5
61	CCN1CCCC1CNC(=O)c1cc2c(-c3cccc(OC)c3)nn(C)c2s1 (configuration not stated)	5	10%	2.2	-5.6
62	CCOC(=O)CN1C(=O)N(CC(=O)OCC)C(c2ccccc2)(c2ccccc2)C1=O	-1	-10%	0.2	-1.7

cpd	B2AR ag	HNF4A DNA FP	Calb FLC
57	12	3.2	6
58	4	-4.1	-2
59	-4	-3.2	-4
60	-13	-2.6	-8
61	10	3.9	-4
62	10	7.0	-8

Screening results from PubChem BioAssay.

Outcome played no part in choosing rows, and some 6.3% of all compounds hit somewhere here.
